# From PubChem BioAssay
# Cruzain inh noDet: inhibitors of Trypanosoma cruzi cruzain without detergent; purified cruzain, Z-FR-AMC fluorescence, no detergent; Potency, µM, for inactives: max response, negative = inhibition, usual class: inhibitors; 2.3% of 200,000 active; AID 1476;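 also: plate controls were enzyme without inhibitor for no effect and buffer without enzyme for full effect; nearly all actives have a fitted effect of over 40% in size; top concentration of the series not given in the record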
# Target sequence (P25779 123-467 limits assumed): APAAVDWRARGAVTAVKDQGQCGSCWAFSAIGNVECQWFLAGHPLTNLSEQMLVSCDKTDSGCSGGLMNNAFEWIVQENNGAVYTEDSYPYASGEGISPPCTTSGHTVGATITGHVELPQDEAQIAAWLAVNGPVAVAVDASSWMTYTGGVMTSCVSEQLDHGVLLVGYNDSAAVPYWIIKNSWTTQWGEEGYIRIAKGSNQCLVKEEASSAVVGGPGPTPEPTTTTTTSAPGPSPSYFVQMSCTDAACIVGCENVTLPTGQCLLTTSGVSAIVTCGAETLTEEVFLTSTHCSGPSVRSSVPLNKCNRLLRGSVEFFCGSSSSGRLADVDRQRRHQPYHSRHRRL
#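 Detergent-free condition (0.00005% Triton X-100) in acetate buffer pH 5.5 with DTT. 1.5 nM enzyme and compound were pre-mixed 15 min, then 2 uM Z-FR-AMC substrate added; reaction progress from fluorescence change between first and third reads (60 s).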
# NS1 inh: inhibitors of influenza NS1 protein function. S. cerevisiae slowed by influenza A NS1, growth recovery by OD600. Potency, µM (doses to about 46.1 µM), without a hit: at the top dose activity, positive = more growth. 0.4% of 270,000 active; active means well fitted rising curve with a large enough effect; inconclusive means small, poorly fitted or top-dose-only effect; inactive means no such curve, though single readings can be large or run the other way; also: nearly all actives have a fitted effect of over 50% in size
#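 OD600 was taken as the measure of yeast growth restored by compound in an NS1-expressing S. cerevisiae strain. Cells had been washed out of glucose medium and diluted 1:100 into galactose -URA medium, pH 6.0.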
# 2A StopGo: lowers the luciferase signal of an FMDV 2A StopGo reporter; human cells with a luciferase reporter of 2A StopGo recoding; control for the full effect not named in the record; Potency, µM (top dose mostly 57.9 µM), for the others: top-dose signal change, negative = less light; 1.2% of 410,000 active; AID 1159524; active = well fitted falling curve with a large enough effect; inconclusive = small, poorly fitted or top-dose-only effect; inactive = no such curve, though single readings can be large or run the other way; tested in HEK293T cells; also: % is scaled to controls: 0 for no effect and ±100 for the full control effect; nearly all actives have a fitted effect of over 45% in size; luciferase light after 4 h
# SARS PLpro yeast: SARS-CoV PLP inhibition in yeast | S. cerevisiae expressing SARS-CoV PLpro, growth rescue; control for the full effect not named in the record | Potency, µM (top dose mostly 32.9 µM), for inactives: top-dose activity, positive = growth rescue | 0.19% of 330,000 active | AID 485353; active means well fitted rising curve with a large enough effect; inconclusive means small, poorly fitted or top-dose-only effect; inactive means no such curve, though single readings can be large or run the other way; also: 0% is about no effect; nearly all actives have a fitted effect of over 55% in size; growth read by luminescence after 48 h
# RE007 growth inh: less growth of the S. pombe RE007 Vpr strain; S. pombe RE007 Vpr strain, BacTiter-Glo ATP luminescence, 24 h; control for the full effect not named in the record; Potency, µM (series often up to 92.2 µM), without a hit: at the top dose activity change, negative = less growth; 0.21% of 360,000 active; active = well fitted falling curve with a large enough effect; inconclusive = small, poorly fitted or top-dose-only effect; inactive = no such curve, though single readings can be large or run the other way;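 also: % is scaled to controls: 0 for no effect and ±100 for the full control effect; nearly all actives have a fitted effect of over 50% in size; the assay follows cell death caused by Vpr and the record does not say whether a fall means rescue or toxicity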
#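 Fission yeast strain RE007, carrying one chromosomally integrated HIV-1 vpr copy, was seeded at OD 0.01 in PMG+AL medium with 23 nL pinned compound. After 24 h at 30 °C and 99% humidity, viability was read by BacTiter-Glo luminescence.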
# Marburg entry inh: blocks Marburg virus binding to or entry into cells. 1.8% of 300,000 active. Marburg virus pseudotyped entry inhibition, cell reporter; control for the full effect not named in the record; about a third of the inactives were read at about 46 µM. Potency, µM (doses to about 37.8 µM), inactives show at the highest dose activity change, negative = inhibition, most hits filed as inhibitors; active = well fitted inhibition curve with a large enough effect; inconclusive = small, poorly fitted or top-dose-only effect, or effect the other way; inactive = flat fitted curve, though single readings scatter; tested in HEK293 cells; about a fifth of its hits are not listed in these tables; also: % is scaled to controls: 0 for no effect and ±100 for the full control effect; luciferase read-out
# Cruzain Triton: inhibitors of Trypanosoma cruzi cruzain with detergent. P25779. Potency, µM, for the others: max response, negative = inhibition, most hits filed as inhibitors. AID 1478. purified cruzain, Z-FR-AMC fluorescence, 0.01% Triton. 0.43% of 200,000 active;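 also: plate controls were neutral wells for no effect and buffer without enzyme for full effect; nearly all actives have a fitted effect of over 40% in size; top concentration of the series not given in the record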
#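 In this qHTS format, compounds are incubated with 1.5 nM cruzain for 15 min at room temperature before 2 uM Z-FR-AMC is added. Release of AMC is followed at 360/450 nm, and progress is taken as the 60 s fluorescence difference.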
# LASV entry inh: Lassa virus entry inhibition | Lassa virus pseudotype entry inhibition, cell reporter; control for the full effect not named in the record | Potency, µM (highest dose often 37.9 µM), without a hit: top-dose activity change, negative = inhibition, hits mostly inhibitors | AID 540256 | 1.2% of 300,000 active; active means well fitted inhibition curve with a large enough effect; inconclusive means small, poorly fitted or top-dose-only effect, or effect the other way; inactive means flat fitted curve, though single readings scatter; tested in HEK293 cells; also: % is scaled to controls: 0 for no effect and ±100 for the full control effect; nearly all actives have a fitted effect of over 50% in size; luciferase read-out
# The depositor's hits bear a star; u = inconclusive; x = no result given; & = joins results of further samples; [ ] = remark or other dose. Unless noted, calls follow the shape of the dose curve; as a rule, active = well fitted curve in the direction sought with a large enough effect; inconclusive = small, poorly fitted or top-dose-only effect, or another doubt; inactive = no such curve, though single readings can be large; an effect the other way counts as inactive or inconclusive. Potency is read from the fitted curve at half-maximal effect.
SMILES,Cruzain inh noDet,NS1 inh,2A StopGo,SARS PLpro yeast,RE007 growth inh,Marburg entry inh,Cruzain Triton,LASV entry inh
COc1ccc(Cl)cc1NC(=O)c1cccnc1,1%,-45%,10%,5%,16%,-2%,3.6%,6%
Cc1ccc(S(=O)(=O)N(CC(=O)N2CCOCC2)c2ccc(Br)cc2)cc1,x,-12%,20%,-6%,-6%,-15%[46.1 µM],x,u
O=C(NN1CCOCC1)c1ccccc1Br,x,4%,-8%,0%,-17%,-1%[46.1 µM],x,0%[46.1 µM]
COc1ccc(N2CCN(C(=O)CSc3nnnn3-c3ccc4c(c3)OCCO4)CC2)cc1,-9%,8%,x,3%,8%,-6%,6.1%,2.9µM*
Cc1cc(OCc2cc(C(=O)N(C)C3CCOCC3)no2)cc(C)c1Cl,x,-48%,-18%,-14%,-1%,-11%,x,-12%
NCCCC(=O)N1c2ccccc2Sc2ccccc21,-12%,-8%,-11%,3%,1%,x,0.8%,x
CCN(CC(=O)NCCc1ccc(F)cc1)Cc1nc2ccccc2c(=O)[nH]1,x,-3%,-19%,1%,-7%,x,x,x
COc1ccccc1NC(=O)c1ccccc1-c1nc(-c2ccccc2OC)no1,24%,-31%,4%,1%,-19%,12µM*,-5.1%,u
O=C(CN1C(=O)NC2(CCCC2)C1=O)NCCN1C(=O)S/C(=C\c2ccccc2F)C1=O,x,x,0%,2%,4%,26%,x,0%
O=C(NCc1cccs1)C1CCCN1C(=O)Nc1ccccc1Cl (stereo not drawn),x,u,10%,0%,-9%,7%[46.1 µM],x,9%[46.1 µM]
CC1(C)CC(=O)C(CC(=O)NC(=O)NCc2ccccc2)=C(O)C1,-2%,-5%,-11%,12%,2%,21%,0.7%,13%
C/C(N)=C(/C#N)C(=O)CSc1nc2ccccc2c(=O)n1Cc1ccc(F)cc1,x,5%,-12%,-1%,14%,x,x,x
Cc1ccc(Nc2cc(C)nc3nc(C)nn23)c(C)c1,0%,-32%,0.71µM*,5%,9%,0%,2.6%,-19%
CCOC(=O)N1CCN(C(=O)CCn2nc(-c3ccc(Cl)cc3)ccc2=O)CC1,u,u,-26%,1%,4%,-3%,1.4%,-18%
COc1cccc(/C=N/n2c(COc3ccccc3)n[nH]c2=S)c1OC,x,-5%,-1%,-1%,14%,x,x,x
CCCCCCC/C=N/Nc1nnc(Cc2ccccc2)c(=O)[nH]1,x,-1%,-12%,11%,13%,u,x,-3%[46.1 µM]
O=C1C(=O)N(CCCn2ccnc2)C(c2ccc(Cl)cc2)/C1=C(\O)c1ccc2c(c1)OCCO2 (stereo not drawn),x,-18%,0%,5%,16%,x,x,x
COc1nccc(Nc2ccccc2)c1C#N,4%,-11%,-18%,5%,-13%,9%[46.1 µM],-0.3%,u
COc1ccc(S(=O)(=O)/C(C#N)=C/Nc2ccc(NC(C)=O)cc2)cc1,x,-2%,21%,1%,6%,x,x,x
Cc1ccccc1NC(=O)c1oc(=O)c2ccccc2c1-c1ccccc1,11%,1%,-21%,-2%,-10%,11%,-5.8%,2%
CCc1ccc(-c2cc(C(F)(F)F)n3nc(C(=O)Nc4cnn(Cc5ccc(C)cc5)c4)cc3n2)s1,-10%,2%,-19%,1%,-6%,9.2µM*,-0.4%,u
CSCCC(NC(=O)c1ccccc1)C(=O)OCC(=O)c1ccc[nH]1 (stereo not drawn),-19%,10%,21%,-7%,3%,u,-18%,u
COc1ccc(OC)c(NC(=O)c2cc(-c3cc(C)c(C)cc3O)n[nH]2)c1,x,3%,18%,-3%,-14%,-7%,x,u
COc1ccccc1NC(=O)N1CCCC1C(=O)NCc1cccs1 (stereo not drawn),x,-4%,-21%,2%,-22%,2%[46.1 µM],x,6%
COCCCNC(=O)/C=C/c1cccc(Cl)c1,0%,-1%,39%[activator],3%,-5%,1%,5.6%,8%
CC(C)c1c(C(=O)N/N=C2\CCc3ccccc32)nnn1-c1nonc1N,x,1%,1%,1%,-6%,-2%[46.1 µM],x,-14%[46.1 µM]
NNc1ccc2c(C(F)(F)F)cc(C(F)(F)F)nc2n1,x,x,-5%,1%,-3%,-24%[46.1 µM],x,0%[46.1 µM]
O=C(COC(=O)c1ccccc1)NCc1cccs1,-9%,-10%,3%,1%,13%,23%,0.1%,9%
O=C(O)/C=C/C(=O)NCc1csc2ccccc12,x,-3%,2%,-7%,u,x,x,x
Cc1sc(NC(=O)c2cc3ccccc3oc2=O)c(C(=O)OC(C)C)c1-c1ccccc1,3.2µM*,u,-9%,-6%,-1%,u,-0.6%,-24%
COc1cccc(-c2nn(C)c3sc(C(=O)NCCc4cccc(C)c4)cc23)c1,2%,x,-26%,x,x,u,3.9%,u
Cc1[nH]c(-c2ccco2)nc1C(=O)O,15%,7%,6%,-7%,12%,9%,5.6%,14%
CN1CCN(C2=C(NS(=O)(=O)c3cccs3)C(=O)c3ccccc3C2=O)CC1,x,3%,-12%,0%,-2%,u,x,u
COc1ccc2[nH]c(C(=O)N(C)Cc3ccccc3)c(C)c2c1,x,-31%,40%[activator],-1%,-16%,x,x,x
COc1ccc(N2CCN(C(=O)Cn3cnc4nc5c(cc4c3=O)CCCC5)CC2)cc1,25%,x,-12%,x,x,x,-3.0%,-10%[46.1 µM]
Cc1cccc(N2C(=O)CC(N3CCN(c4ccccn4)CC3)C2=O)c1 (stereo not drawn),x,-2%,-17%,-5%,-24%,-17%[46.1 µM],x,17%
CCOc1ccc(NC(=O)CSc2nnc(C3CC3)n2C)cc1,x,4%,-11%,-2%,1%,6%,x,12%
COc1ccc(-n2c(C)nnc2SCC(=O)N2C(C)CCCC2C)cc1 (stereo not drawn),2%,-11%,x,1%,0%,9%,2.8%,u
O=C(Nc1ccc2oc(-c3ccccc3F)nc2c1)c1ncn[nH]1,20%,3%,47%[activator],1%,x,-6%,-13%,x
COc1ccc(/C=N/NC(=O)c2ccccc2O)cc1COc1ccccn1,x,-7%,-3%,0%,-7%,x,x,x
COc1ccc(-c2nc3ccccc3o2)cc1OC,x,-50%,65%[activator],-14%,-7%,x,x,x
COCC(C)n1c(C)cc(C(=O)COc2ccc(C)nc2[N+](=O)[O-])c1C (stereo not drawn),x,x,-12%,-1%,7%,-5%[46.1 µM],x,-20%
O=C1C(c2ccc(F)cc2)N(CCc2ccccc2)C(=O)CN1C1CCCCC1 (stereo not drawn),7%,x,0%,x,x,x,-0.1%,2%[46.1 µM]
COc1ccc(CN2CCCCC2c2cccnc2)c(OC)c1C (stereo not drawn),1%,3%,x,8%,-9%,-11%,2.0%,-15%
O=C(CCC1CCCC1)c1c(O)c2ccccc2oc1=O,-9%,-123%,7%,-92%,-22%,1%,-2.7%,0%
CCCOC(=O)c1c(NC(=O)c2nc3ncccn3n2)sc(C(N)=O)c1C,-5%,x,-14%,x,x,u,-4.1%,-20%[46.1 µM]
COc1ccc(N(CC(=O)Nc2ccc3c(c2)OCCO3)S(=O)(=O)c2cccnc2)cc1,-7%,-61%,0%,7%,-1%,4%,-1.2%,x
O=C(COC(=O)c1ccc(OC(F)(F)F)cc1)Nc1ncccn1,x,x,-8%,3%,6%,11%&11%,x,4%
O=C(c1cncs1)N1CCCC(CNS(=O)(=O)c2cccs2)C1 (stereo not drawn),x,1%,13%,0%,8%,12%[46.1 µM],x,9%[46.1 µM]
COc1ccc(NC(=O)CSc2nnc(-c3cccs3)n2Cc2ccco2)cc1OC,18%,-10%,u,-1%,7%,u,-1.9%,u
Cc1cn2c(=O)cc(COc3ccc(NC(=O)c4ccccc4C)cc3)nc2s1,-8%,x,0%,x,x,u,0.6%,28%[46.1 µM]
CCCC(=O)Nc1ccccc1NC(C)=O,-1%,1%,8%,1%,-2%,13%,6.7%,13%
O=C1COc2ccc(C(=O)COC(=O)c3cc(S(=O)(=O)NCc4ccccc4)ccc3O)cc2N1,x,2%,25%,-1%,-3%,x,x,x
COc1ccc(-n2nc(C(=O)c3cccs3)cc(-c3nc4ccccc4[nH]3)c2=N)cc1,3%,8%,6%,-9%,11%,1%,-12%,3%
CN(C)c1ccccc1C(=O)N1CCCC(C(=O)c2ccc3ccccc3c2)C1 (stereo not drawn),x,-31%,-18%,-1%,-12%,u,x,u
O=c1cc(CN2CCc3ccccc3C2)nc2sccn12,x,11%,-1%,1%,7%,2%[46.1 µM],x,-4%[46.1 µM]
Cn1c2ccccc2c2cc(C(=O)OCC(=O)N3CC(=O)Nc4ccccc43)sc21,-17%,-37%,-26%,-4%,-13%,16%,-3.6%,-5%
COc1cc(C(=O)NNC(=O)Nc2ccc([N+](=O)[O-])cc2)cc(OC)c1OC,x,x,-4%,1%,0%,-26%[46.1 µM],x,-7%[46.1 µM]
COc1ccc(NS(=O)(=O)c2ccc(C)c(C(=O)N3CCC3)c2)cc1,x,x,10%,-1%,-1%,4%,x,u
CC(=O)[C@@]1(O)CC[C@H]2[C@@H]3C[C@H](C)C4=CC(=O)C=C[C@]4(C)[C@@]3(F)[C@@H](O)C[C@@]21C,3%,5%,-16%,-2%,1%[18.4 µM],u,0.0%,-23%

# Next section
SMILES,Cruzain inh noDet,NS1 inh,2A StopGo,SARS PLpro yeast,RE007 growth inh,Marburg entry inh,Cruzain Triton,LASV entry inh
Cc1ccc(Cn2c(CNS(=O)(=O)c3ccc(Cl)s3)nc3cccnc32)cc1,5%,x,70%[activator],x,x,x,0.8%,29%[46.1 µM]
Cc1cc(C)c(C2C(C#N)=C(N)Oc3n[nH]c(C)c32)cc1CN1CCOCC1 (stereo not drawn),10%,-4%,u,-2%,-3%,7%,8.7%,-14%
CCOc1ccc(NS(=O)(=O)c2cc(Br)cc3c2N(C(=O)C2CC2)CC3)cc1,9%,x,-17%,x,x,u,-1.2%,11%[46.1 µM]
CCN(CC)S(=O)(=O)c1cc([N+](=O)[O-])ccc1NNC(=O)Nc1ccccc1OC,-13%,0%,-28%,1%,4%,u,-6.6%,-30%
